Assay outcomes from PubChem.
Arbovirus inh – antivirals against arbovirus infection. inhibition, % at 10 µM. arbovirus infection cell-based antiviral screen. AID 1251. actives 0.37% (n = 200,000);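 active = inhibition from about 30%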;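 also: bluetongue infection of BSR cells; cell survival read as ATP light after 72 h; 0% = infected wells without compound and 100% = uninfected wells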
Mtb growth – M. tuberculosis H37Rv growth inhibitors, H37Rv strain (AID 1626) | M. tuberculosis H37Rv growth inhibition; higher % means a stronger effect | actives 0.95% (n = 220,000) | one-dose inhibition, % at 10 µM; IC50 in µM for titrated hits;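 active = confirmed in a dose series; inconclusive = inhibition above 80% but not taken into the dose series; inactive = below 80% or under 30% at every dose of the series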;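 also: bacteria incubated seven days before Alamar blue readout; 0% = bacteria only wells and 100% = bacteria with antibiotic wells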
YopH PTP inh – blocks Yersinia enterocolitica YopH tyrosine phosphatase; AID 898; inhibition, %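 (about 10 µM by stock and volumes)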; fluorescence Ex485/Em525; actives 0.16% (n = 140,000);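 active = inhibition of 50% or more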;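 also: controls were vehicle for no effect and minimum signal wells for full effect; inactives centre near -20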
Mtb betalactam – beta-lactam sensitization of Mtb H37Rv. inhibition, % at 25 µM. M. tuberculosis H37Rv growth with meropenem, percent inhibition; hits of this screen are not shown here. actives 0.27% (n = 330,000). AID 434955;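 active = about 74% or more and at least 40 points above the plate without the antibiotic, then above 30% in a dose series; inconclusive = first-round hits that could not be retested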;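 also: growth measured after seven days incubation then overnight dye step; 0% = bacteria only wells and 100% = bacteria with antibiotic; twin plates without the antibiotic show which effects depend on it; some results filed as inactive read as strong as hits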
RecA splice inh – blocks M. tuberculosis RecA intein splicing; P9WHJ3; inhibition, %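 (about 9 µM by stock and volumes)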; cell-free RecA intein splicing, fluorescence; actives 0.75% (n = 290,000); in the data active = inhibition above about 30%; inconclusive = no clear call, values can overlap the other calls;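 also: 0% = vehicle wells and 100% = reference inhibitor control wells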
Target sequence (P9WHJ3 whole entry, looked up, canonical isoform): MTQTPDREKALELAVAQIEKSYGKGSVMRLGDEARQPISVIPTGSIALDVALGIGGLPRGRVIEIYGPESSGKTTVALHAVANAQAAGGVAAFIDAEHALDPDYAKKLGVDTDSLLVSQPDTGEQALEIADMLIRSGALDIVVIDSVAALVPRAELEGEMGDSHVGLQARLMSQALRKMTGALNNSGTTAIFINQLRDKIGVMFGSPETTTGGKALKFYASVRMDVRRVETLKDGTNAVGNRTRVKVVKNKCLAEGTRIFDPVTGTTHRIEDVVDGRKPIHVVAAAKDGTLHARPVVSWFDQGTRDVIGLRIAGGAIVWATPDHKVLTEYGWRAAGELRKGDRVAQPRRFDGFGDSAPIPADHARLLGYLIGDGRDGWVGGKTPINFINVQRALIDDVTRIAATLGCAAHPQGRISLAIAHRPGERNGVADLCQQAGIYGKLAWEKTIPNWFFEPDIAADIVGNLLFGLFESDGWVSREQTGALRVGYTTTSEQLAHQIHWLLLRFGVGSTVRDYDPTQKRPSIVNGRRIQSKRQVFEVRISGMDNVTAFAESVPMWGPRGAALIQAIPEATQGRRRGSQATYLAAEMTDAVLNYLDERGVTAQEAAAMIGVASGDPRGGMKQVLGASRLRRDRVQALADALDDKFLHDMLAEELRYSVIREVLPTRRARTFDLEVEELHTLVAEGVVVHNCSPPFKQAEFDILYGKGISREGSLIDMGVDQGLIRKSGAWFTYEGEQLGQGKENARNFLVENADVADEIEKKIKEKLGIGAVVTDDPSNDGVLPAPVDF
An asterisk follows results filed as active; ? = inconclusive; · = not tested or not shown.

canonical_smiles | Arbovirus inh | Mtb growth | YopH PTP inh | Mtb betalactam | RecA splice inh
COc1ccc(NS(=O)(=O)c2cc(NC(=O)c3cccs3)ccc2N2CCOCC2)cc1 | -21 | 13% | · | 41 | 10
CCCCS(=O)Cc1ccccc1 (configuration not stated) | 2 | -13% | -8 | 7 | 0.6
O=C1N(Cc2cccc(Cl)c2)C[C@@H]2C[C@@H](c3cccc4ncccc34)N3CCC[C@@]123 | -14 | 0% | · | 1 | 6.1
CCOc1cc(NC(=O)c2ccccn2)c(OCC)cc1NC(=O)c1ccc(Cl)cc1 | · | · | · | 10 | -2.3
Cc1ccc(C)c(C(C)NC(=O)Cc2cccs2)c1 (configuration not stated) | · | · | · | 1 | -5.6
Cc1ccc(-c2nn(C)c(=O)c3ccccc23)cc1CNC(=O)CN1CCOCC1 | 2 | -16% | -24 | -6 | 5.8
CCCN1C(=O)/C(=N\OCC(=O)NC23CC4CC(CC(C4)C2)C3)c2ccccc21 | 15 | -4% | -20 | 4 | 6.4
Cc1ccc2nc(-c3ccc(NC(=S)NC4CC(C)(C)NC(C)(C)C4)cc3)sc2c1 | -32 | ? | · | 93 | 11
Cc1ccc(NC(=O)COc2coc(CN3CCN(c4ccccc4)CC3)cc2=O)cc1 | · | · | · | -4 | -0.5
CC(C)(C)N1CC(C(=O)Nc2ccc(S(=O)(=O)N3CCCCC3)cc2)CC1=O (configuration not stated) | · | · | · | -14 | 0.9
COc1ccccc1CNC(=O)C1CCC1 | -2 | -5% | -15 | 0 | -5.1
CCOc1ccccc1N1CCN(Cc2cccc(OC)c2O)CC1 | 14 | -3% | -12 | 0 | -2.3
CN(C(=O)c1ccc2c(=O)n3c(nc2c1)CCCCC3)c1ccccc1F | · | · | · | 2 | 1.4
NS(=O)(=O)c1ccc(CCNc2ccccc2[N+](=O)[O-])cc1 | · | · | · | 1 | -0.8
CCOc1cc(/C=C2/C(=N)N3C(=NC2=O)SN=C3S(=O)(=O)C(C)C)ccc1OC(=O)c1ccco1 | · | · | · | 11 | 32*
CCc1nc2c(n1O)CCc1nonc1-2 | 1 | -5% | -17 | -6 | 0.7
Cc1ccc(-c2cc(C(=O)Nc3c(C#N)cnn3C)no2)cc1 | 0 | -3% | -34 | 9 | -3.3
CCC(c1nnnn1Cc1ccco1)N1CCN(C(=O)c2ccco2)CC1 (configuration not stated) | -1 | · | -12 | -6 | -1.3
C=CCNc1nnc(Cc2ccc(C(C)C)cc2)c(=O)[nH]1 | · | · | · | ? | -0.5
CCN(CC)c1ccc(NC(=O)c2ccco2)c(C)c1 | -3 | 0% | -24 | 0 | -2.0
CN(C)c1nc(C=C(C#N)C#N)c(Cl)n1-c1ccc(F)cc1 | -33 | 6% | · | · | 15
Cc1ccc(-n2ccnc(SCC(=O)NC3CCCC3)c2=O)cc1F | · | · | · | -3 | 1.9
CCN1CCN(S(=O)(=O)c2cccc3nsnc23)CC1 | 0 | -14% | 3 | -3 | -1.7
C/C(CC(=O)NC12CC3CC(CC(C3)C1)C2)=N\NC(=O)Cc1cccs1 | -2 | 4% | -7 | 31 | -1.6
O=C1CC(c2ccco2)Cc2nc(Nc3nc(-c4ccccc4)c4ccccc4n3)ncc21 (configuration not stated) | -5 | · | -54 | 93 | 3.4

Three entries already listed, sorted by heavy-atom count, rising.
canonical_smiles | Arbovirus inh | Mtb growth | YopH PTP inh | Mtb betalactam | RecA splice inh
Cc1ccc(C)c(C(C)NC(=O)Cc2cccs2)c1 (configuration not stated) | · | · | · | 1 | -5.6
NS(=O)(=O)c1ccc(CCNc2ccccc2[N+](=O)[O-])cc1 | · | · | · | 1 | -0.8
Cc1ccc(-c2cc(C(=O)Nc3c(C#N)cnn3C)no2)cc1 | 0 | -3% | -34 | 9 | -3.3

Remaining list, next part:
canonical_smiles | Arbovirus inh | Mtb growth | YopH PTP inh | Mtb betalactam | RecA splice inh
Cc1c(O)ccc2c(=O)c(Oc3ccccc3)coc12 | · | · | · | -4 | -1.4
CC(C)CC(OC(=O)c1ccco1)C(=O)NC1CCCCC1 (configuration not stated) | -5 | -15% | -5 | 2 | 0.1
CC(C)C(NC(=S)Nc1ccccc1)C(=O)O (configuration not stated) | 3 | 21% | -31 | -3 | -2.7
C=C(C)CSC1=C(C#N)C(c2ccsc2)CC(=O)N1 (configuration not stated) | 6 | -8% | -44 | -10 | 2.4
CCc1cccc(CC)c1NC(=S)NCCc1ccc(O)c(O)c1 | -34 | -2% | · | 0 | -1.6
c1ccc2c(c1)[nH]c1c(N3CCOCC3)ncnc12 | 7 | -1% | -37 | -3 | -1.4
COC(=O)c1c(C)oc(C)c1S(=O)(=O)NCC1CC1 | · | 7% | · | -9 | -2.0
COc1cc2c(cc1OC)C(c1cc3cc(C)ccc3[nH]c1=O)N(C(=O)c1ccco1)CC2 (configuration not stated) | · | · | · | 9 | -0.1
O=C1CC(N2CCN(c3ccccc3)CC2)C(=O)N1Cc1ccc(Cl)cc1 (configuration not stated) | 7 | 4% | · | -5 | -1.5
COC(=O)c1cc(NC(=O)C2CC=CCC2C(=O)O)cc(C(=O)OC)c1 (configuration not stated) | 0 | -9% | -32 | 1 | 0.5
CCOC(=O)c1nc(N2CCN(C(=O)OCC)CC2)c2c3c(sc2n1)CCCC3 | 10 | 12% | -11 | · | 6.3
COc1ccc(CCNC(=O)C2CCCN2C(=O)Nc2ccc(C)cc2)cc1OC (configuration not stated) | · | · | · | 9 | -3.4
CC1=CC(C)(C)N(C(=O)CNC2CCCCC2)c2cc(C)ccc21 | 10 | 0% | · | 6 | 1.0
Nc1c(Cl)ncnc1NCc1cccnc1 | · | · | · | -2 | -1.8
O=C(NC(=S)NCCCN1CCOCC1)c1ccc([N+](=O)[O-])cc1 | 5 | -1% | -23 | -5 | ·
Cc1ccc(-n2c(-c3ccco3)n[nH]c2=S)cc1 | -3 | -1% | · | 2 | -0.5
Cc1cc(C2C(C#N)=C(N)Oc3n[nH]c(C)c32)c(C)s1 (configuration not stated) | 9 | -1% | -6 | 0 | 81*
CCOC(=O)Cn1c2c(c(=N)c3ccccc31)CCC2 | -4 | -5% | -16 | -3 | 9.2
CCN(CC)S(=O)(=O)c1ccc(NC(=O)COC(=O)CN2C(=O)c3ccccc3C2=O)cc1 | 10 | -7% | 4 | 4 | 1.4
COc1ccccc1N(C)S(=O)(=O)c1ccc(C)c(C(=O)Nc2nccs2)c1 | · | · | · | -5 | 8.8
Cc1cc(C)cc(C(=O)NCC(=O)OCC(=O)c2cc(C)n(CC(F)(F)F)c2C)c1 | -1 | 5% | -23 | 4 | ·
CCC(=O)Nc1ccc(Oc2ccc3c(c2)C(=O)NC3=O)cc1 | 2 | 3% | -6 | 0 | -1.4
Cc1cc(C)c(C(=O)COC(=O)Cn2c(C)csc2=O)cc1C | · | · | · | -4 | 0.7
Cc1nc2cc(-c3cccs3)[nH]n2c(=O)c1C | 3 | -2% | -17 | 6 | 0.4
CN(C)c1nc(Nc2ccc(Cl)cc2)nc(OCC#N)n1 | -2 | -2% | -11 | 29 | -1.1

canonical_smiles | Arbovirus inh | Mtb growth | YopH PTP inh | Mtb betalactam | RecA splice inh
CCOC(=O)c1ccccc1NC1c2ccccc2C(=O)N1c1cc(C)ccn1 (configuration not stated) | -11 | 9% | -31 | 4 | -3.0
COc1cccc(OCC(=O)NNC(=S)Nc2ccc(Cl)cc2Cl)c1 | 1 | 1% | · | -2 | 0.5
Cc1cccc(CSCCNC(=O)CCSc2ccccc2)c1 | 3 | -7% | -30 | 5 | ·
Cc1cc(O)c(C2(O)C(=O)Nc3ccccc32)cc1C (configuration not stated) | · | · | · | 2 | 0.9
O=c1c2ccccc2nc2ccccn12 | 3 | 3% | · | -5 | -16
Cn1c(COc2ccccc2)nnc1SCC(=O)Nc1ccc(N2CCOCC2)cc1 | · | · | · | -2 | 0.1
C(=N\Nc1nc(Nc2ccccc2)nc(N2CCCCC2)n1)/c1ccco1 | -6 | ? | · | 92 | -0.9
CCOc1ccc(CCNC(=O)CSc2cc(=O)n(C)c3cc(Cl)ccc23)cc1OCC | 4 | -8% | -20 | ? | -1.9
CCn1cc(/C=C(\NC(=O)c2ccccc2OC)C(=O)NCCCn2ccnc2)c2ccccc21 | · | · | · | 3 | 3.2
O=C(COc1ccccc1)N(Cc1nnc(-c2ccccc2Cl)o1)C1CC1 | · | · | · | -13 | 2.6
COc1ccc(C2N=C(Nc3ccc(C)cc3)Nc3nc(C)cc(=O)n32)cc1 (configuration not stated) | 5 | 2% | -17 | 0 | ·
CCOc1ccc(S(=O)(=O)N2CCC(C(=O)NCc3cccnc3)CC2)cc1C | · | · | · | -5 | -0.4
O=[N+]([O-])c1ccc(/C=N/Nc2nc(-c3ccccc3)c3cc(Br)ccc3n2)o1 | -30 | · | -14 | 99 | 6.1
O=C(CCCN1C(=O)c2ccccc2C1=O)N1CCC(c2ccccc2)C1 (configuration not stated) | 1 | -6% | 9 | 2 | 5.2
O=C(NCc1cccnc1)c1ccc(Br)o1 | · | · | · | -11 | -1.6
NC(=O)NC(=O)COC(=O)CCCSc1nc2ccccc2s1 | · | · | · | -4 | -0.6
COc1ccc(-c2cnc(SCCNC(=O)c3ccc4c(c3)OCO4)[nH]2)cc1 | · | · | · | 4 | -0.7
Cn1nnnc1SCC(=O)NCCc1ccc(Cl)cc1 | -3 | 0% | -36 | 0 | 0.1
C/C(=N\NC(=S)Nc1ccc(C)cc1)c1cccc(N)c1 | 5 | -3% | · | 96 | 2.7
CC1CCCC(NS(=O)(=O)c2cccc3nsnc23)C1C (configuration not stated) | · | · | · | 2 | 0.4
CNC(=O)c1cc2ncc(C(F)(F)F)cc2s1 | -5 | 1% | · | 4 | -2.2
Cc1c(C(=O)N2CCN(CCc3ccccn3)CC2)oc2ccc(Cl)cc12 | · | · | · | -4 | 1.1
CCC(=O)N(CCc1ccccc1)Cc1cc2cccc(C)c2[nH]c1=O | · | · | · | 1 | -3.9
COc1ccc(CO[C@@H]2O[C@H](CO)[C@@H](O)[C@H](O)[C@H]2NC(C)=O)cc1OC | · | · | · | 0 | -0.8
CN(CC1CCCO1)S(=O)(=O)c1ccc(C(=O)Nc2ccc([N+](=O)[O-])cc2)cc1 (configuration not stated) | · | · | · | ? | 4.7

canonical_smiles | Arbovirus inh | Mtb growth | YopH PTP inh | Mtb betalactam | RecA splice inh
O=C1/C(=C\c2cccnc2)CN(Cc2ccccc2)C/C1=C\c1cccnc1 | 17 | ? | -11 | 100 | 8.5
COc1ccc(CNC(=O)CSc2nnc(NC(=O)C3CC3)s2)cc1 | · | · | · | -9 | 1.9
CC(=O)Nc1ccc(NC(=O)c2ccccc2S(=O)(=O)c2ccccc2[N+](=O)[O-])cc1 | 2 | -5% | -12 | 3 | 0.1
Cc1ccc(OCc2nnc(SC(C)C(=O)O)n2Cc2ccccc2)cc1 (configuration not stated) | -3 | -9% | · | -17 | -2.1
CC(C)c1ccc(/C=N/NC(=O)c2c(Cl)cnn2C)cc1 | 4 | -1% | -27 | 4 | 1.0
CCCC(=O)Nc1nc2nc(C)cc(=O)n2[nH]1 | 12 | · | -30 | -10 | -1.1
CC(C(=O)OCC(=O)c1ccc([N+](=O)[O-])cc1)N1C(=O)C2C3C=CC(C3)C2C1=O (configuration not stated) | · | · | · | 2 | -10.0
Cc1ccc(OCC(=O)Nc2cccc3nsnc23)c(C)c1 | 2 | 8% | -15 | 18 | -5.1
Cc1ccc(NC(=S)NNC(C)(C)C)cc1 | · | -4% | · | 20 | -1.0
COc1ccc(N=Nc2c(O)[nH]c(=S)[nH]c2=O)cc1 | 1 | 49% | · | 80 | -2.4
Cc1cccc(C(=O)O)c1NC(=O)c1ccc(F)cc1 | 3 | -7% | -22 | -6 | -3.4
CC1CN(Cc2ccccc2)c2nc3c(c(=O)n(C)c(=O)n3C)n2C1 (configuration not stated) | 11 | -3% | -34 | -13 | 1.2
Cc1cnc(NC(=O)C2CCCO2)s1 (configuration not stated) | 9 | -5% | 23 | -8 | -2.4
Nc1ccc2c(c1)CCC2=O | · | -8% | -13 | -1 | -12
CC(C)COP(=O)(OCC(C)C)C(O)c1ccc(N(C)C)cc1 (configuration not stated) | · | 1% | · | 2 | -0.5
Cc1cc2c(ncn2Cc2ccccc2)c([N+](=O)[O-])c1C | -4 | -3% | -7 | -1 | 0.5
CCOC(=O)C1CCN(C(=O)CCNC(=O)Cn2cnc3ccccc3c2=O)CC1 | · | · | · | 6 | 0.3
Cc1cccc(NC(=O)c2cc(-c3ccc(C)c(C)c3O)n[nH]2)c1 | · | · | · | 12 | 2.1

Not all compounds are listed. The share of hits here may be higher or lower than overall.
